# Screening data from PubChem.
# Vaccinia stage = blocks a specific stage of Vaccinia orthopoxvirus infection. Vaccinia-infected cells, mCherry/Venus stage reporter fluorescence; hits give low values; some inactives read as strong as hits. activity change (mCherry), % (concentration not given with the values). actives 0.01% (n = 89,000);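 active = mCherry past -33% and 40 or more points under the early reporter, replicates agreeing; inconclusive = past -33% without that gap or agreement; tested in A549 cells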;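 note: scaled between vehicle wells and reference inhibitor wells; 23 nL library stock went into each well; one replicate is shown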
# Vaccinia stage Venus = second read-out of Vaccinia stage, no call of its own (marks repeat the call); activity change (Venus), %; measured here: Venus reporter, other viral stage;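 negative = less Venus signal; first of two replicates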
# Numbers without * were called inactive; u = inconclusive; x = no result given.
SMILES,Vaccinia stage,Vaccinia stage Venus
Cc1cc(C(=O)Nc2cccc3c2O[C@H](CN(C)Cc2ccc(-c4ccccc4)cc2)[C@@H](C)CN([C@@H](C)CO)C3=O)n(C)n1,u,x
COc1ccccc1CNC(=O)C[C@@H]1C[C@@H]2c3cc(NC(=O)c4ccc5c(c4)OCO5)ccc3O[C@@H]2[C@H](CO)O1,-2,-5
C[C@@H]1CN([C@@H](C)CO)C(=O)c2cc(NC(=O)Nc3cccc4ccccc34)ccc2O[C@@H](C)CCCCO[C@@H]1CN(C)C(=O)c1ccccc1,16,14
C[C@@H]1CN([C@H](C)CO)C(=O)c2cc(C#CC3(O)CCCC3)cnc2O[C@@H]1CN(C)Cc1ccccc1,9,-1
COCC(=O)Nc1ccc2c(c1)C(=O)N(C)C[C@@H](OC)[C@H](C)CN(C(=O)c1cnccn1)[C@@H](C)CO2,2,5
C[C@@H]1CCCCO[C@@H](CN(C)S(=O)(=O)c2cccs2)[C@@H](C)CN([C@@H](C)CO)C(=O)c2cc(NC(=O)CCCN(C)C)ccc2O1,-4,-6
C[C@@H]1CN([C@@H](C)CO)C(=O)c2cc(NC(=O)Nc3cccc4ccccc34)ccc2O[C@@H]1CN(C)Cc1ccc2c(c1)OCO2,-24,-18
O=C(Nc1ccccc1F)N1CC(=O)N2[C@H](C1)[C@@H](c1ccc(C#CC3CC3)cc1)[C@@H]2CO,-13,-15
N#C[C@@H]1[C@H](c2ccccc2)[C@@H](CO)N1C(=O)CCN1CCCCC1,9,0
O=C(NCC[C@H]1CC[C@H](NC(=O)C2CCCC2)[C@H](CO)O1)c1cnccn1,-6,7
C[C@@H]1CN([C@@H](C)CO)C(=O)c2cc(C3=CCCC3)cnc2O[C@@H]1CN(C)S(=O)(=O)c1cn(C)cn1,8,6
C[C@H]1CN([C@@H](C)CO)C(=O)c2cc(NC(=O)Nc3ccc(C(F)(F)F)cc3)ccc2O[C@H]1CN(C)Cc1ccc(C(=O)O)cc1,-7,-3
COCC(=O)Nc1ccc2c(c1)C(=O)N(C)C[C@H](OC)[C@H](C)CN(C(=O)Cc1ccccn1)[C@@H](C)CO2,6,8
O=C(Nc1cccc(Cl)c1)N[C@@H]1CC[C@@H](CCNC(=O)C2CCCCC2)O[C@H]1CO,-14,-7
CC(C)NC(=O)N(C)C[C@H]1Oc2ccc(NC(=O)Nc3cccc4ccccc34)cc2CC(=O)N([C@H](C)CO)C[C@@H]1C,1,10
COc1ccc(NC(=O)N[C@H]2CC[C@@H](CCNS(=O)(=O)c3cccc(Cl)c3)O[C@H]2CO)cc1,-9,-8
COC(=O)C[C@@H]1CC[C@H](NS(=O)(=O)c2ccc(OC)cc2)[C@H](CO)O1,-1,-3
CCCNC(=O)[C@H]1[C@H](CO)[C@H]2Cn3c(ccc(-c4ccc(OC)cc4)c3=O)[C@H]2N1CCC,7,3
CC(C)NC(=O)Nc1ccc2c(c1)CC(=O)N([C@@H](C)CO)C[C@@H](C)[C@H](CN(C)S(=O)(=O)c1cccs1)O2,24,20
C[C@H]1CN([C@@H](C)CO)C(=O)c2cc(NS(=O)(=O)c3cccs3)ccc2O[C@@H]1CN(C)Cc1ccc(Oc2ccccc2)cc1,30,13
C[C@@H]1CCCCO[C@H](CN(C)C(=O)Nc2ccccc2)[C@@H](C)CN([C@@H](C)CO)C(=O)c2cc(NC(=O)c3ccncc3)ccc2O1,-1,-8
O=C(C[C@H]1CC[C@@H](NC(=O)Nc2ccc3c(c2)OCO3)[C@@H](CO)O1)NCc1ccc2c(c1)OCO2,4,-4
CO[C@H](CN(C)S(=O)(=O)c1ccc(C)cc1)[C@@H](C)CN([C@H](C)CO)S(=O)(=O)c1cccc(Cl)c1,-21,-22
COc1ccc(NC(=O)Nc2ccc3c(c2)C(=O)N([C@H](C)CO)C[C@H](C)[C@@H](CN(C)C(=O)Nc2ccc(F)cc2)O3)cc1,2,13
COCCNC[C@@H]1[C@H](c2ccccc2)[C@H](CO)N1c1nc(C)c(C)s1,3,5

# Some of the entries so far, as labelled records.
Structure: CCCNC(=O)[C@H]1[C@H](CO)[C@H]2Cn3c(ccc(-c4ccc(OC)cc4)c3=O)[C@H]2N1CCC
  Vaccinia stage: 7
  Vaccinia stage Venus: 3

Structure: CC(C)NC(=O)Nc1ccc2c(c1)CC(=O)N([C@@H](C)CO)C[C@@H](C)[C@H](CN(C)S(=O)(=O)c1cccs1)O2
  Vaccinia stage: 24
  Vaccinia stage Venus: 20

# Going on with the list.
SMILES,Vaccinia stage,Vaccinia stage Venus
COC(=O)[C@H]1[C@H](CO)[C@H]2Cn3c(ccc(-c4ccccc4F)c3=O)[C@H]2N1C(=O)c1ccccn1,14,4
Cc1ccc(-c2ccccc2[C@@H]2[C@H](C#N)N(C(=O)c3cccc(F)c3)[C@H]2CO)cc1,8,-2
CO[C@@H]1CN(C)C(=O)c2cc(NC(=O)C3CC3)ccc2OC[C@H](C)N(C(=O)CN(C)C)C[C@@H]1C,8,10
COc1ccc(S(=O)(=O)N(C)C[C@H]2OCCCC[C@H](C)Oc3ccc(NC(=O)NC4CCCCC4)cc3C(=O)N([C@@H](C)CO)C[C@H]2C)cc1,26,23
C[C@@H]1CN([C@H](C)CO)S(=O)(=O)c2ccc(C#CC3CCCC3)cc2O[C@H]1CN(C)C,u,x
CO[C@H]1CN(C)C(=O)c2ccc(NS(C)(=O)=O)cc2OC[C@@H](C)N(C(=O)CC2CC2)C[C@@H]1C,12,10
O=C(NC1CCC1)[C@@H]1[C@@H](CO)[C@@H]2Cn3c(cccc3=O)[C@H]1N2CC1CCCC1,-1,-8
Cc1cccc(CN(C)C[C@@H]2OCc3cn(nn3)CCCC(=O)N([C@H](C)CO)C[C@H]2C)c1,12,11
COc1ccc2c3c([nH]c2c1)[C@@H](CO)N(S(C)(=O)=O)CC31CCN(CC2CCCC2)CC1,-23,-20
COc1cccc(-c2ccc3c(c2)O[C@H](CN(C)CC2CC2)[C@H](C)CN([C@H](C)CO)S3(=O)=O)c1,-15,-8
C[C@@H]1CN([C@@H](C)CO)C(=O)c2cccc(NC(=O)Nc3ccc(C(F)(F)F)cc3)c2O[C@H]1CN(C)CC1CC1,-23,-21
CO[C@@H]1CC[C@H]2CCOc3c(C#N)cccc3C(=O)N(C)C[C@H](C)C(=O)N(C)C[C@H]1O2,12,12
COc1ccc2c3c(n(C)c2c1)[C@@H](CO)N(C(=O)NC(C)C)CC31CN(CC2CCOCC2)C1,16,-6
CO[C@H](CN(C)C(=O)c1ccccc1F)[C@H](C)CN([C@@H](C)CO)S(=O)(=O)c1ccc(C)cc1,2,-2
O=C(C1=C[C@@H](c2ccc(C(F)(F)F)cc2)C[C@@H](OCc2ccc(CO)cc2)O1)N1CCCCCCC1,0,3
COC(=O)[C@H]1[C@H](CO)[C@H]2Cn3c(ccc(-c4cccc(F)c4)c3=O)[C@H]2N1C(=O)CC1CC1,8,3
CO[C@@H]1CN(C)C(=O)c2cc(NC(=O)NC(C)C)ccc2OC[C@@H](C)N(C)C[C@H]1C,5,3
Cc1ccc(S(=O)(=O)N(C)C[C@H]2Oc3cc(C#CC4CCCC4)ccc3S(=O)(=O)N([C@@H](C)CO)C[C@@H]2C)cc1,u,x
CCC(=O)Nc1ccc2c(c1)OC[C@@H](C)N(C(=O)c1ccccn1)C[C@H](C)[C@@H](OC)CN(C)C2=O,0,4
CC(C)NC(=O)N1CC2(C1)[C@H](c1ccccc1)[C@@H](CO)N2Cc1cccnc1,1,1
O=C(Nc1ccccc1)N[C@@H]1CC[C@@H](CCn2cc(C3(O)CCCC3)nn2)O[C@H]1CO,10,12
CCC(=O)N1CC2(CN(Cc3ccc(Cl)cc3)C2)c2c([nH]c3cc(OC)ccc23)[C@H]1CO,u,x
CO[C@@H]1CN(C)C(=O)c2ccc(NC(=O)C3CCCCC3)cc2OC[C@@H](C)N(Cc2nccs2)C[C@H]1C,-9,-6
CNC(=O)C[C@@H]1CC[C@@H]2[C@H](COC[C@H](O)CN2C(=O)c2ccc3c(c2)OCO3)O1,9,9
C[C@@H]1CN([C@H](C)CO)C(=O)c2cc(NC(=O)CCN3CCOCC3)ccc2O[C@@H]1CN(C)C(=O)NC1CCCCC1,18,4

# (further entries)
SMILES,Vaccinia stage,Vaccinia stage Venus
CCCc1cn(CC[C@@H]2CC[C@H](NC(=O)C3CCOCC3)[C@@H](CO)O2)nn1,7,-2
Cc1ccc(S(=O)(=O)Nc2ccc3c(c2)C(=O)N([C@H](C)CO)C[C@@H](C)[C@@H](CN(C)Cc2ccc4c(c2)OCO4)O3)cc1,-26,-23
C[C@@H]1CN([C@H](C)CO)C(=O)c2cccc(NS(=O)(=O)c3ccc(F)cc3)c2O[C@H]1CN(C)C(=O)Nc1ccc(F)cc1,18,13
O=C(C1CCCC1)N1CC2(C1)[C@H](c1ccccc1)[C@@H](CO)N2C(=O)c1cccnc1,5,11
O=C(NCC[C@@H]1CC[C@H](NC(=O)c2ccccc2F)[C@@H](CO)O1)c1cnccn1,2,3
Cc1ccc(S(=O)(=O)NCC[C@@H]2CC[C@H](NC(=O)CCN3CCCCC3)[C@H](CO)O2)cc1,4,7
Cc1noc(C)c1S(=O)(=O)Nc1ccc2c(c1)C(=O)N([C@@H](C)CO)C[C@@H](C)[C@H](CN(C)S(=O)(=O)c1ccccc1)O2,16,21
O=C(C[C@H]1CC[C@@H]2[C@H](COC[C@H](O)CN2Cc2cccc(-c3ccncc3)c2)O1)N1CCOCC1,-8,-7
O=C(CC1CC1)N1[C@H](CO)[C@@H](c2ccccc2)C12CN(S(=O)(=O)c1ccccc1)C2,-3,-8
O=C(CC1CC1)N1CC(=O)N2[C@@H](CO)[C@H](c3ccc(C#Cc4cccc(F)c4)cc3)[C@@H]2C1,-21,-19
Cc1cccc(S(=O)(=O)N2CCCCN3[C@H](CO)[C@H](c4ccc(C#C[C@H](C)O)cc4)[C@H]3C2)c1,u,x
C[C@@H]1CN([C@H](C)CO)C(=O)c2cc(NC(=O)Cc3ccccc3)ccc2O[C@H]1CN(C)Cc1ccc(Cl)c(Cl)c1,u,x

# Arranged by molecular weight (ascending): part of the list above.
SMILES,Vaccinia stage,Vaccinia stage Venus
CCCc1cn(CC[C@@H]2CC[C@H](NC(=O)C3CCOCC3)[C@@H](CO)O2)nn1,7,-2
O=C(NCC[C@@H]1CC[C@H](NC(=O)c2ccccc2F)[C@@H](CO)O1)c1cnccn1,2,3
O=C(CC1CC1)N1[C@H](CO)[C@@H](c2ccccc2)C12CN(S(=O)(=O)c1ccccc1)C2,-3,-8
Cc1ccc(S(=O)(=O)NCC[C@@H]2CC[C@H](NC(=O)CCN3CCCCC3)[C@H](CO)O2)cc1,4,7
Cc1ccc(S(=O)(=O)Nc2ccc3c(c2)C(=O)N([C@H](C)CO)C[C@@H](C)[C@@H](CN(C)Cc2ccc4c(c2)OCO4)O3)cc1,-26,-23
Cc1noc(C)c1S(=O)(=O)Nc1ccc2c(c1)C(=O)N([C@@H](C)CO)C[C@@H](C)[C@H](CN(C)S(=O)(=O)c1ccccc1)O2,16,21

# Fetched by compound from the list above:
SMILES,Vaccinia stage,Vaccinia stage Venus
Cc1cccc(S(=O)(=O)N2CCCCN3[C@H](CO)[C@H](c4ccc(C#C[C@H](C)O)cc4)[C@H]3C2)c1,u,x
O=C(CC1CC1)N1[C@H](CO)[C@@H](c2ccccc2)C12CN(S(=O)(=O)c1ccccc1)C2,-3,-8
O=C(C[C@H]1CC[C@@H]2[C@H](COC[C@H](O)CN2Cc2cccc(-c3ccncc3)c2)O1)N1CCOCC1,-8,-7
Cc1ccc(S(=O)(=O)Nc2ccc3c(c2)C(=O)N([C@H](C)CO)C[C@@H](C)[C@@H](CN(C)Cc2ccc4c(c2)OCO4)O3)cc1,-26,-23

# These rows are one share of the data; rates above refer to the full screens.
